# MT1-MMP act inh – inhibitors of human MT1-MMP activation. P50281. HT1080 RFP-PRO-GFP cells, GFP/RFP ratio fluorescence, overnight; percent of plate control window, DMSO zero. GFP/RFP ratio change, % at 20 µM. 0.061% of 360,000 active. AID 651647;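 active means GFP/RFP ratio change of at least 30% with cell ATP level not reduced by more than half and red fluorescence within 50% of control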; further: strong numbers were not always called active
#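 Compound: 20 µM single dose, 1% DMSO / System: HT1080 RFP-PRO-GFP cells / Controls: DMSO and RFP-L50D-GFP cell wells / Read-out basis: GFP/RFP fluorescence ratio / Schedule: overnight compound exposure at 37 °C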
# eIF4H inh – inhibitors of RNA binding by human eIF4H; inhibition, % at 35 µM; eIF4H fluorescence polarization binding assay; 0.94% of 290,000 active;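 active means 50% or more with normal probe brightness, or confirmed in later tests; inconclusive means above 50% with abnormal brightness, or retests that disagree; inactive means below 50% or failed in later tests; about a fifth of its hits are not listed in these tables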;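 further: calls also rest on retests at 20 µM and on dose response follow-up; 0% = protein and probe with vehicle and 100% = probe without protein; strong numbers were not always called active; many hits fall short of the cut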
# Env fusion inh – HIV envelope-mediated fusion inhibition; 1.1% of 360,000 active; HeLa-JRFL Env/CEM21 cell fusion, luciferase; inhibition, % at 12.3 µM; AID 651610;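 active means mean replicate inhibition score of at least 50 and every replicate individually at or above 50; inconclusive means only one of the two criteria met; inactive means mean below 50 and not all replicates reaching 50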;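 further: 0% = plate neutral controls and 100% = maraviroc near 300 nM; one replicate is shown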
# PABP polyA inh – PABP-poly(A) binding inhibition; 1% of 290,000 active; AID 2014; PABP-poly(A) RNA binding, fluorescence polarization; inhibition, % at 35 µM; P11940;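 active means 50% or more with normal probe brightness, or confirmed in later tests; inconclusive means above 50% with abnormal brightness, or retests that disagree; inactive means below 50% or failed in later tests; about a fifth of its hits are not listed in these tables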;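 further: calls also rest on retests at 20 µM and on dose response follow-up; controls were probe without protein and protein plus probe with vehicle; some compounds called inactive have numbers as strong as hits; many hits fall short of the cut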
# Target sequence (P11940 whole entry, looked up): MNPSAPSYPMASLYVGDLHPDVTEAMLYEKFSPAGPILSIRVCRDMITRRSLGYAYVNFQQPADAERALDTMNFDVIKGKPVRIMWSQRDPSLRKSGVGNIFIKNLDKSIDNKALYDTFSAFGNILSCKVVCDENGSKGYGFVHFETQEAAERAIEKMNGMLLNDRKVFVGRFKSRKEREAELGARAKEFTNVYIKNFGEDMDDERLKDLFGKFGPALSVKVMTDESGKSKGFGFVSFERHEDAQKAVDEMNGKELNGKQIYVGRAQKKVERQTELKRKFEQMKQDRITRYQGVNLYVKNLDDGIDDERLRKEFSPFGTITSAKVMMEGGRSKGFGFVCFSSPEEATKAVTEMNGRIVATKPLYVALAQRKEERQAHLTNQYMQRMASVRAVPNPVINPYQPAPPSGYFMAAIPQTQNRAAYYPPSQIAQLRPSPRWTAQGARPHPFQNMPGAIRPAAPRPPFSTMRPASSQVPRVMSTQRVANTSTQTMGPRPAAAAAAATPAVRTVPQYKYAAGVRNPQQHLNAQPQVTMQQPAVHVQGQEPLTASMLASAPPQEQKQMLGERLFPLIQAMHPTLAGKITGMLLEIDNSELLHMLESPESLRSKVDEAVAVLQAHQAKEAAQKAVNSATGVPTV
# CSC inhib – blocks cancer stem cells. inhibition, % at 7.5 µM. 1.1% of 300,000 active. cancer stem cell-like cells viability, luminescence;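 active means mean at 75% or more and at least half the replicates too; inconclusive means mean and replicates disagree; tested in HMLE shEcad cells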;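 further: 0% = median of negative and 100% = median of positive control wells; the first replicate is given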
# Rce1 inh – inhibitors of yeast Ras-converting enzyme; Q03530; yeast membranes, quenched prenylated peptide cleavage fluorescence; calls only; 0.27% of 290,000 active; AID 2563;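 active means fall in fluorescence gain of 50% or more versus controls, with final raw signal at or below 3038400; inconclusive means same 50% fall but final raw signal above 3038400; inactive means fall in fluorescence gain under 50%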;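 further: plate controls were neutral control wells for no effect and wells lacking membranes for full effect; tested at 10 µM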
# Target sequence (Q03530 whole entry, looked up): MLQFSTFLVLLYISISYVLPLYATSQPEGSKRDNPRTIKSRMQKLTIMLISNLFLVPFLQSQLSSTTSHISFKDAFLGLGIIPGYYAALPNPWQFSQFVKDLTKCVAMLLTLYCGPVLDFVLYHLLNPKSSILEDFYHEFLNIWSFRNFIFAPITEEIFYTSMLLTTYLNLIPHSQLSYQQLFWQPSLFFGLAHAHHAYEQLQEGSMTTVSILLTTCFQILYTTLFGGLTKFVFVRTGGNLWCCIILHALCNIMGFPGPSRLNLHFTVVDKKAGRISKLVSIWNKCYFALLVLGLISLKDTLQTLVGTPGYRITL
# UUG fidelity – yeast start codon fidelity modulation | S. cerevisiae UUG-firefly luciferase reporter, luminescence/redox ratio | activity score, % at 18.7 µM | 0.13% of 350,000 active;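 active means replicate mean at a twofold rise or more, about +100% in these data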;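 further: firefly luciferase made from a UUG start codon reports start codon fidelity; reporter light over untreated wells divided by growth signal over untreated wells; some hits fall short of that in this replicate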
# MT1-MMP act inh RFP – further read-out of MT1-MMP act inh, marked with its call; RFP signal change, %; measured here: RFP expression control read;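 0 = vehicle wells; hits needed this value within 50% of zero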
# Active calls of the source: *; i = inactive; ? = inconclusive; nt = no result given; [ ] = another dose, or the depositor's remark. Not a hit list (roughly 3% active in at least one column).
SMILES,MT1-MMP act inh,MT1-MMP act inh RFP,eIF4H inh,Env fusion inh,PABP polyA inh,CSC inhib,Rce1 inh,UUG fidelity
COc1ccc(C2CC(c3cccs3)=NN2C(=O)COC(=O)c2cncc(Br)c2)cc1OC (stereo unspecified),-1,-1,-6,6,-6,-12,i,2
CC(C)NC(=O)Nc1ccc2c(c1)C(=O)N([C@H](C)CO)C[C@H](C)[C@@H](CN(C)S(C)(=O)=O)O2,3,7,nt,-3[16.7 µM],nt,2,nt,-10
COc1cccc(CC(=O)N[C@@H](CCSC)c2nc3ccccc3[nH]2)c1,-2,1,-11,-19,7,-6,i,nt
COc1ccc(CNC(=O)COC(=O)CCOc2ccc(C)cc2)cc1OC,-6,3,nt,3,nt,33,i,-5
O=C(c1cnc2c(c1)COc1ccc(Cl)cc1-2)c1ccccc1O,4,10,-5,nt,2,nt,i,-16
CN(C)S(=O)(=O)c1ccc(Cl)c(NC(=O)COC(=O)CN2C(=O)C3CCCCC3C2=O)c1 (stereo unspecified),-4,3,-14,-7,-2,-18,i,nt
Cc1cc(C(=O)CSc2nnnn2-c2ccc(O)cc2)c(C)n1C,2,5,31,-5,-4,-7,nt,nt
Cc1sc2ncnc(N3CCOCC3)c2c1C,-4,-2,-3,nt,-4,-11,i,-14
CCc1ccc(N2CC(C(=O)Nc3ccccc3N3CCCC3)CC2=O)cc1 (stereo unspecified),-9,-5,nt,26,nt,nt,nt,7
O=C(NC(Cc1ccccc1)C(=O)O)/C(=C/c1ccccc1)NC(=O)c1cccc(Br)c1 (stereo unspecified),-3,0,-1,4,7,-1,i,nt
Cc1nc2nc(-c3ccccc3)[nH]n2c(=O)c1Cc1ccccc1,5,0,9,nt,10,8,nt,-8
CC(=O)Nc1ccc(S(=O)(=O)N2CCC(NC(=O)c3ccccc3)CC2)cc1,-2,-1,3,-5,2,-16,i,-11
O=C(c1ccc(Cl)c(Cl)c1)N1CCC(=O)N(C(COCc2ccc(Cl)cc2)Cc2ccccc2)CC1 (stereo unspecified),-2,-8,-5,23,9,43,i,-20
CCN(CC)c1c([N+](=O)[O-])c(=O)oc2ccccc12,-2,1,0,-4,-6,-4,i,nt
O=C1C=C(NNC(=O)c2ccncc2)CC(c2ccccc2)C1 (stereo unspecified),-4,1,?,-1,4,-5,i,nt
O=C(c1ccc(N2CCCC2)c([N+](=O)[O-])c1)N1CCN(c2ccccn2)CC1,2,0,4,14,6,-21,i,nt
O=C(O)c1cnnc2ccccc12,1,0,nt,7,nt,nt,nt,1
CCN(C(=O)c1cc(S(=O)(=O)N2CCCC2)ccc1C)C1CCS(=O)(=O)C1 (stereo unspecified),-1,1,nt,nt,nt,-11,nt,-16
CCn1c(=O)c2sccc2n(Cc2cc(C(=O)OC)ccc2OC)c1=O,1,-2,5,3,1,-14,i,7
COc1ccccc1NC(=O)CN(C)S(=O)(=O)c1ccc(F)cc1,-2,3,-2,nt,-5,nt,i,6
CCN(CC)c1ccc(/C=N/NC(=O)CN2CCCc3ccccc32)cc1,-6,1,-5,4,-15,2,i,nt
O=C(CSc1nnc(-c2ccc(Cl)cc2)o1)NNC(=O)c1ccncc1,2,0,nt,nt,nt,-10,nt,-11
CC1CCN(C(=O)CCc2nnc(-c3ccccc3)o2)CC1,0,-1,-4,-21,-6,4,i,nt
O=C(/C=C/c1cc([N+](=O)[O-])ccc1OC(F)F)Nc1cccc2ccccc12,-2,-10,-12,10,-12,11,i,nt
O=C(c1cccnc1)N1CCN(Cc2cccc(F)c2)CC1,1,-1,9,nt,36,2,i,2
CCCc1ccc2c(C(F)(F)F)cc(C(F)(F)F)cc2n1,3,5,nt,4,nt,nt,nt,2
c1cnc(Nc2nc(-c3ccc4ccccc4c3)cs2)nc1,8,7,4,-143,2,nt,nt,-3
COc1cccc(CNC(=O)C2=C(C)C(=O)OC23CCC(C)CC3)c1 (stereo unspecified),0,-2,4,20,0,-1,i,nt
O=C(CSc1nc2ccccc2s1)N1CCCCC1,3,5,-1,nt,2,-4,i,-30
COc1ccc(C2CC(c3ccc(OC)cc3)n3nc(NC(=O)c4cccs4)nc3N2)cc1 (stereo unspecified),6,6,-2,-22,-7,-15,i,-28
COc1cc(C)c(Cl)cc1S(=O)(=O)n1cnc2ccccc21,5,2,-10,nt,1,4,i,-11
Brc1ccc(-c2noc(-c3ccccc3)n2)o1,0,2,3,-46,1,6,i,nt
CSc1cnc2c(=O)n(C)c(=O)[nH]c2n1,9,3,-1,21,5,-19,i,nt
Cn1cccc1/C=N/n1c(-c2ccco2)n[nH]c1=S,9,13,-3,1,8,nt,i,nt
CCc1nc2ccccc2c(C(=O)OCCN2C(=O)c3ccccc3C2=O)c1C,-3,-5,-2,nt,-1,-6,i,nt
Cc1cccc(C)c1NC(=O)CNC(=O)c1ccccc1,1,2,0,-9,17,-2,i,nt
Cc1cccc(Cc2ccc(Cl)nn2)c1,-2,0,12,8,-7,nt,i,nt
N#CCCN(Cc1ccccc1)C(=O)c1nccnc1C(=O)O,4,2,2,-5,10,nt,i,6
C=CCNc1nc(-c2ccc(O)c(C(N)=O)c2)cs1,0,0,-4,nt,16,-9,i,-29
COc1ccc(CCNC(=O)Cn2ccc3cc(S(=O)(=O)N4CCCC4)ccc32)cc1OC,0,-3,-7,2,-5,-7,i,11
CCOc1ccc(OCCCCn2ccnc2)cc1,-4,-2,8,nt,10,24,i,nt
Cc1cc(C(=O)CSc2nncs2)c(C)n1-c1c(C)n(C)n(-c2ccccc2)c1=O,-5,-2,-4,-4,-8,-13,i,-14
COc1ccc(C(=O)CSc2nnc(-c3ccc(C)cc3)o2)cc1,3,3,-3,-16,16,-22,i,-19
CCn1cc(C(=O)NCC2CCCO2)c(=O)c2cc(S(=O)(=O)N(C)C)ccc21 (stereo unspecified),-2,-2,-6,15,42,-3,i,-32
COc1ccc(C(=O)N2CCC(n3nccc3NC(=O)C3CC3)CC2)cc1F,0,5,-14,6,11,15,i,-11
COCc1cc(C)nc(OCC(=O)N/N=C/c2ccc(O)cc2)c1C#N,5,9,-13,12,-2,7,i,-5
CC1(C)CC2(OC2c2ccccc2[N+](=O)[O-])C(=O)c2ccccc21 (stereo unspecified),0,-4,nt,27,nt,nt,nt,-11
Cc1c(Cl)c([N+](=O)[O-])nn1CCCC(=O)Nc1cccc(Cl)c1Cl,-3,0,-16,nt,-12,nt,i,-1
CCC(C)(C(=O)NC1CCCC1)N(C(=O)CC1NC(=O)NC1=O)c1c(C)n(C)n(-c2ccccc2)c1=O (stereo unspecified),1,-1,8,2,-2,-9,i,-17
O=C(c1ccc(F)cc1F)N1CCC(N2CCC(C(=O)N3CCOCC3)CC2)CC1,-3,0,-10,2,-2,4,i,8
COc1cc(/C=N/NC(=O)c2ccc(F)cc2)ccc1OC(=O)c1ccco1,3,4,6,0,-5,-5,i,nt
O=C(NCc1ccccc1)N1CCC(CO)(Cc2cccc(F)c2)CC1,1,-1,-11,-5,-8,-5,i,-9
O=C(Nc1ccccc1)OC[C@@H]1C=CS(=O)(=O)N1Cc1ccc(Br)cc1,3,7,nt,11,nt,nt,nt,-6
Cc1ccc2[nH]c(=O)c(CN(CCCN3CCOCC3)C(=O)Nc3cccc(Cl)c3)cc2c1,3,3,1,12,-3,-6,i,nt
COc1ccccc1C(=O)N(Cc1ccccc1)c1ccc(C)cc1,-7,-2,-15,-13,-15,4,i,-5
CCOc1ccc(CN(C)C(=O)CN2C(=O)NC3(CCCc4ccccc43)C2=O)cc1 (stereo unspecified),6,-7,nt,4,nt,13,nt,-10
CN1CCN(C(=O)c2ccc(-c3cnc4cccnn34)cc2)CC1,-9,-1,nt,7,nt,nt,nt,-3
Cn1cccc1Cc1nnc(SCC(=O)NCC2CCCO2)n1CCc1ccccc1 (stereo unspecified),1,4,1,nt,-1,-9,i,-40
COc1ccc(NS(=O)(=O)c2cc(C)ccc2C)cc1,-2,-13,0,nt,-2,50,i,-5
Cc1ccc(C)n1CCN1CCN(S(=O)(=O)c2ccc(F)cc2F)CC1,-3,-1,7,-3,14,-12,i,nt

# (list continues)
SMILES,MT1-MMP act inh,MT1-MMP act inh RFP,eIF4H inh,Env fusion inh,PABP polyA inh,CSC inhib,Rce1 inh,UUG fidelity
COc1ccccc1NC(=O)c1ccc(Cl)c(S(=O)(=O)NCc2ccco2)c1,-1,0,nt,-44,nt,-13,nt,6
Fc1ccc(CN2CCN(c3ncccn3)CC2)c(F)c1,0,-3,22,-16,22,-8,i,19
O=[N+]([O-])c1ccc(C2=Nn3cnnc3SC2)cc1,0,-1,-6,0,-9,9,i,-19
CN(C)C(=O)NC(Nc1cccc([N+](=O)[O-])c1)C(Cl)(Cl)Cl (stereo unspecified),0,-1,-1,0,-4,-5,i,-12
O=C(c1ccc(Cl)c(S(=O)(=O)NCc2ccco2)c1)N1CCN(c2ccccc2F)CC1,-2,-5,-3,-75,2,18,i,-11
Cc1nn(CCOc2ccccc2)c(=O)n1-c1cccc(F)c1,1,1,5,-23,0,-7,i,3
Cn1cc(C[C@H](NC(=O)OC(C)(C)C)C(=O)N[C@H](CO)Cc2ccccc2)c2ccccc21,-6,-6,nt,-6,nt,-32,i,1
COc1ccc(S(=O)(=O)N2CCN(C(=O)c3cc(-c4ccccc4OC)n[nH]3)CC2)cc1,7,-5,-4,-57,-2,nt,i,10
O=[N+]([O-])c1ccc(N/N=C/C=C/c2ccco2)cc1,-75,2,nt,-58,nt,11,i,-4
CCOC(=O)c1c(/N=C/C2=C(O)CCCC2=O)sc2c1CCCC2,-6,-3,7,7,16,-4,i,19
Cc1c(OCc2nn[nH]n2)ccc2c3c(c(=O)oc12)CCCC3,-1,0,-5,-5,33,-11,i,-24
OCCNc1ncnc2c1nnn2Cc1ccccc1,0,7,4,12,5,nt,i,-12
Cc1ccc(C)c(NC(=O)C2CCN(C(=O)c3cccs3)CC2)c1,-1,1,3,-4,3,-28,nt,0
Cc1ccc(NC(=O)CN(C)C(=O)CSc2nnc(C)s2)cc1,1,4,nt,9,nt,-17,nt,-15
O=C(CN1CCN(Cc2ccc(F)cc2Cl)C1=O)NCc1cccs1,4,1,9,-2,0,-15,i,nt
COC(=O)COc1ccc(-n2cnnn2)cc1,0,6,-2,-9,9,-1,i,-22
Cc1ccc(N=C2NC(=O)S/C2=C\c2ccco2)cc1,-4,-2,?,1,1,3,i,nt
Cc1[nH]c2ccc(F)cc2c1CCN(Cc1ccncc1)C(=S)Nc1ccccc1,0,-7,-3,9,48,1,i,nt
O=C(COC(=O)CCc1c[nH]c(=O)[nH]1)Nc1cccc(Cl)c1,-5,2,16,nt,35,-14,i,-19
Cc1nc(Cc2nnc(SC(C)C(=O)N3c4ccccc4NC(=O)C3(C)C)o2)cs1 (stereo unspecified),1,-1,nt,nt,nt,-11,nt,0

# High-throughput results from PubChem BioAssay.
